Screens (PubChem)
HPGD block – HPGD (human) dehydrogenase inhibition; purified HPGD, NADH fluorescence kinetic, PGE2 substrate; Potency, µM, for the others: at the top dose activity change, negative = inhibition, actives largely listed as inhibitors; P15428; 150,000 compounds, 4.3% hits; active = well fitted inhibition curve with a large enough effect (not every such curve was filed as active); inconclusive = small, poorly fitted or top-dose-only effect, or another doubt; inactive = no such curve, though single readings can be large or run the other way;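 further: top concentration of the series not given in the record; plate controls included wells without enzyme; inactives centre near -10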
Target sequence (P15428 whole entry, looked up): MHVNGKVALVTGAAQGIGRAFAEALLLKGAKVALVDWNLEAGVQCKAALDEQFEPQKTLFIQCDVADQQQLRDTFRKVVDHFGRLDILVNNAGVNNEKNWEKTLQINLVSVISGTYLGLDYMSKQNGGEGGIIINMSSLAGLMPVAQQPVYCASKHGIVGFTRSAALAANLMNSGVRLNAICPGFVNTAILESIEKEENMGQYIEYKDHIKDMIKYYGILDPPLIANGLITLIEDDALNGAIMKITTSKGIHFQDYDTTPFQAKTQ
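20 nM HPGD preincubated 15 min at room temperature with compound in 50 mM Tris-HCl pH 8, 0.01% Tween 20. Started with 1 mM NAD+ and 30 uM prostaglandin E2; NADH fluorescence (360/450 nm) read 5 times over 30-s intervals, last minus first.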
Starred values were filed as active, the others as inactive; ? = inconclusive; & = joins results of further samples. On the % scale 0 is the no-effect control and ±100 the full control effect; potency means the concentration at half of the fitted maximal effect. Some of the compounds tested (hit frequency here may not be typical).

mol	HPGD block
O=Cc1cn(-c2ccccc2)nc1-c1cc2c(ccc3ccccc32)oc1=O	?
O=C(Cc1ccc(F)cc1)N(c1ccccc1)C1C=CS(=O)(=O)C1 (stereo not drawn)	-2%
COc1cc(C(=O)NCCc2ccc3c(c2)OCCO3)ccc1OCC(=O)N1CCOCC1	-29%
O=C(COc1ccccc1)Nc1ccc(S(=O)(=O)N2CCOCC2)cc1	-7%
CN1CC(=O)N(C)c2ncn(Cc3ccccc3)c2C1=O	-7%
O=C1CC(c2ccco2)Cc2nc(N3CCN(Cc4ccc5c(c4)OCO5)CC3)ncc21 (stereo not drawn)	?
Cc1ccnc(NC(=O)c2ccccc2[N+](=O)[O-])c1	?
O=C(Cn1cnc2c(cnn2-c2ccc(F)cc2)c1=O)NCCc1ccccc1	-18%
O=C(Cn1ncc2c1-c1ccccc1OC2)Nc1ccc(S(=O)(=O)N2CCCCC2)cc1	-4%
CCC(C)n1c(-c2cccs2)nc2nc3ccccc3nc21 (stereo not drawn)	?
Clc1ccc(-c2nnsc2SCc2ccccc2)cc1	-7%
CCOC(=O)c1[nH]c(C)c(C(=O)NCc2ccc(Cl)cc2)c1C	-5%
Nc1c(C(O)(C(F)(F)F)C(F)(F)F)cc(C(O)(C(F)(F)F)C(F)(F)F)c2ccccc12	-17%
Cc1nc2ccccn2c1/C(O)=C1\C(=O)C(=O)N(CCN(C)C)C1c1cccnc1 (stereo not drawn)	-11%
CCN1C(=O)c2cccc3c(NC(=O)c4ccc(S(=O)(=O)N(C)C)cc4)ccc1c23	-11%
Cc1ncc(S(=O)(=O)c2ccccc2)c(-c2ccccc2)n1	-4%
Cc1ccc(NC(=O)c2cc(S(=O)(=O)N3CCCCC3)ccc2N2CCOCC2)cc1F	?
CCOC(=O)/C(N=O)=C(\O)C1CCN(C(=O)OCC)CC1	-7%
CCOc1ccc(CN(C(=O)c2oc3cc(C)ccc3c2C)C2CCS(=O)(=O)C2)cc1 (stereo not drawn)	-10%
C=CCn1c(NCc2c[nH]c3ccccc23)nc2ccccc21	4%
Cc1csc(NC(=O)c2cc3c(C)nn(Cc4ccccc4Cl)c3s2)n1	?
COc1ccc(-c2noc(CSc3nnc(-c4ccccc4)n3C)n2)cc1	3%
Cn1nnnc1SCC(=O)Nc1cc(C(=O)O)cc(C(=O)O)c1	-4%
CCOc1ccc2[nH]cc(C(=O)N3CCN(CC)CC3)c(=O)c2c1	?
COc1ccccc1NC(=O)c1ccc(NS(C)(=O)=O)cc1	-28%
COc1ccc(Cl)cc1Nc1ncnc2sc(C)c(S(=O)(=O)N3CCC(C)CC3)c12	?
Cc1ccccc1NC(=O)Cn1c(C)nc2ccc(N)cc2c1=O	?
CC(=O)N1CCN(C(=O)CSc2nc3c(cnn3-c3ccccc3)c(=O)[nH]2)CC1	?
Cc1cc(C)c(C#N)c(Nc2ccccc2)n1	-25%
O=C(NC1(C(F)(F)F)NC(=O)N(Cc2cccnc2)C1=O)c1ccncc1 (stereo not drawn)	-3%
COc1cc2oc(=O)cc(-c3cccc(-c4cccc(C)c4)c3)c2c(OC)c1OC	?
CCC(C)N1C(=O)S/C(=C/c2ccc(N3CCOCC3)cc2C)C1=O (stereo not drawn)	-2%
CCCN(CC1CC1)C(=O)COC(=O)c1[nH]c(C)c(C(=O)OCC)c1C	-9%
CCNC(=O)C1CC(=O)N(c2ccc(OCC)cc2)C1 (stereo not drawn)	-7%
CC1=C(C(=O)Nc2ccc(Cl)cc2)C(c2ccco2)NC(=O)N1 (stereo not drawn)	-13%
Cc1cccc(-c2nc(CN3CCCC(C(=O)NC4CCC(C)CC4)C3)c(C)o2)c1 (stereo not drawn)	-18%
O=C(Cn1c(CN2CCCCC2)nc2ccccc2c1=O)Nc1ccccc1	-11%
CSc1nsc(SCc2ccc(Cl)cc2)n1	-6%
O=C(CSc1nc(-c2ccco2)cc(C(F)(F)F)n1)Nc1ccc(C(=O)N2CCOCC2)cc1	22µM*
O=C(CCC(=O)c1ccc(Cl)cc1)OCC(=O)c1ccccc1	?
COc1cccc(CN2C(=O)Nc3ccccc3C(=O)N2C(C)(C)C)c1	-3%
Cc1cc(OCc2ccc(C(=O)n3cccn3)o2)ccc1Cl	32µM*
Cn1cc(Br)c(C(=O)N2CCN(c3cccc(Cl)c3)CC2)n1	-13%
Nc1[nH]c(N=NC(=O)c2ccc(Cl)cc2)c2ccccc12	-24%
CCS(=O)(=O)c1nc2ccccc2n1CC(=O)N1CCOCC1	-4%
COC(=O)c1cc(=O)n(CCc2ccccc2F)c(=Nc2ccc(F)c(Cl)c2)s1	-11%
Cc1ccc(-c2cccc(C(=O)NCc3ccccc3)n2)c2ccccc12	?
COc1ccc(N2CCN(CCCNS(=O)(=O)c3c(C)noc3/C=C/N(C)C)CC2)cc1	-9%
Cn1c(=O)c(C(=O)CCl)c(N)n(CC2CC2)c1=O	0%
Cc1ccc2c(C)nc(NC3=NCN(Cc4ccccc4)CN3)nc2c1	2%
Cn1nnnc1SCC(=O)N(C1CCCCC1)C1CCCCC1	-6%
O=C(COC(=O)c1n[nH]c(=O)c2ccccc12)c1ccc(Cl)cc1	1%
O=C(COC(=O)c1cn(-c2ccccc2)nc1-c1ccccc1)c1cccc([N+](=O)[O-])c1	-14%
C=CCn1c(C(C)NC(=O)CCC)nc2ccccc21 (stereo not drawn)	-11%
COc1cccc(CN(c2ccc3c(c2)CCC3)S(=O)(=O)c2ccc(-n3cnnn3)c(OC)c2)c1	-12%
Nc1nc(-c2ccccc2)cc(N2CCCCC2)n1	-6%
Cc1ccc(-n2c3c(cc(C(=O)O)c2=O)C(=O)CC(C)(C)C3)cc1	-6%
O=C(CNC(=S)NC(=O)c1cccc([N+](=O)[O-])c1)c1ccccc1	-5%
CC(C)(C)c1ccc(C(=O)N2CCC(C(=O)NCC3CCCO3)CC2)cc1 (stereo not drawn)	-6%
CCSc1nc(O)c(C2OC(=O)c3c2ccc(OC)c3OC)c(=O)n1-c1ccccc1 (stereo not drawn)	-1%

Continued:
mol	HPGD block
COc1cccc(Nc2ncc3nc(-c4cc(F)cc(F)c4)c(=O)n(CCC#N)c3n2)c1	-14%
O=C(O)C1(O)CC(O)C(O)C(O)C1 (stereo not drawn)	-5%
COc1ccccc1-n1c(SCC(=O)Nc2ccccc2C)nc(O)cc1=O	-7%
COc1ccc(N2CCN(c3oc(Cc4cccc5ccccc45)nc3C#N)CC2)cc1	?
CCOc1ccc(Nc2nc(Cc3nnc(SCC(=O)O)o3)cs2)cc1	?
Cc1cc(C)nc(Sc2ccc([N+](=O)[O-])cc2[N+](=O)[O-])n1	-4%
O=C1c2ccccc2C(=O)N1Cc1nc2ccccc2o1	-9%
CCn1c2ccccc2c2cc(NC(=O)c3cccc(OC)c3OC)ccc21	?
C[C@]12C[C@H](O)CC(CO)(CO)C1[C@H](O)C[C@@]13CC4[C@@H](CC12)[C@@]4(C)C3 (stereo partly drawn)	1%
CS(=O)(=O)c1ccc2nc(N)sc2c1	-18%
COc1cccc(NC(=O)Cc2ccc(C)cc2)c1	-15%
COCn1ccnc1C(O)(c1ccc(OC)cc1)c1ccc(OC)cc1	0%
COc1ccc(N2CCN(C(=S)Nc3cccc(C)c3C)CC2)cc1	-6%
Cc1ccc(NC(=S)N(Cc2cccs2)Cc2cc3cc(C)cc(C)c3[nH]c2=O)cc1	-13%
COc1ccc(-c2cc(C(=O)NC(C)C)no2)cc1	?
COC(=O)C(NC(=O)c1ccccc1)=C1C=C(C)OC(C)=C1	-21%
NCC[C@H](O)C(=O)N[C@H]1C[C@@H](N)[C@@H](O[C@H]2O[C@@H](CN)[C@@H](O)[C@@H](O)[C@@H]2O)[C@@H](O)[C@@H]1O[C@H]1O[C@@H](CO)[C@@H](O)[C@@H](N)[C@@H]1O	4%
c1cnc2c(OCc3cn4cccnc4n3)cccc2c1	?
COc1ccc(/C=N/NC(=O)c2ccc(COCC(F)(F)C(F)F)cc2)cc1	-21%
O=C(c1ccco1)N(CCCN1CCOCC1)c1nc(-c2ccc(F)cc2)cs1	-22%
CCc1ccc(N(C)S(=O)(=O)c2ccc3[nH]cc(C(=O)NCCN4CCOCC4)c(=O)c3c2)cc1	?
CCOC(=O)c1cc(C#N)c(NCc2ccccc2)nc1C	-27%
COc1ccccc1-n1cnc(N)c1C(=O)c1ccccc1	-9%
O=C(CCCCCn1c(=S)[nH]c2ccccc2c1=O)N1CCOCC1	14µM*
COc1ccc2cc3cc(C(=O)NCCCN4CCOCC4)oc3nc2c1	?
C[C@H](Cc1ccccc1)Nc1ncnc2c1ncn2[C@@H]1O[C@H](CO)[C@H](O)[C@H]1O	?
NC(=O)c1nc(N2CCOCC2)nc(N2CCOCC2)n1	-19%
O=C(Nc1ccc2ccccc2c1)c1cnccn1	-9%
Oc1ccccc1C=Nc1ccccc1-c1nc2ccccc2[nH]1	?
COCc1c(C#N)c(NCCc2ccccc2)nc(C)c1[N+](=O)[O-]	-18%

More compounds follow:
molecule,HPGD block
O=C(OCC(=O)c1c[nH]c2ccccc12)c1cccc(O)c1,-8%
CCCN(CCC)Cc1c(C(=O)OCC)nnn1-c1nonc1N,-5%
O=C(NCCc1ccc2c(c1)OCO2)C1CCN(S(=O)(=O)c2ccc(Cl)cc2)CC1,-11%
CCOC(=O)c1c2n(c3ccc(OC(C)=O)cc13)CCC2,-12%
CCOc1ccc(-c2cn(CCC#N)cn2)cc1,-3%
Cc1ccc(-c2csc(NC(=O)CSc3nnc4c(n3)[nH]c3ccccc34)n2)cc1,-14%
CSc1nnc2c(n1)OC(C1CC=C(C)CC1)Nc1ccccc1-2 (stereo not drawn),-12%
COc1ccc2c(=O)c(N3C(=O)c4ccccc4C3=O)c(C)oc2c1,-6%
COc1ccc(NC(=O)c2nc(-n3nc(C)cc3C)ccc2Cl)cc1Cl,-17%
Cc1nn(CC(=O)Nc2ccc3c(c2)nc(CCN2CCCCC2)n3C)c(=O)c2ccccc12,-10%

Pulled by compound from the entries so far, 5 records:
molecule,HPGD block
Clc1ccc(-c2nnsc2SCc2ccccc2)cc1,-7%
COc1cccc(CN(c2ccc3c(c2)CCC3)S(=O)(=O)c2ccc(-n3cnnn3)c(OC)c2)c1,-12%
COc1cccc(Nc2ncc3nc(-c4cc(F)cc(F)c4)c(=O)n(CCC#N)c3n2)c1,-14%
COc1cc2oc(=O)cc(-c3cccc(-c4cccc(C)c4)c3)c2c(OC)c1OC,?
C=CCn1c(NCc2c[nH]c3ccccc23)nc2ccccc21,4%

Additional records
molecule,HPGD block
Cn1cc(Cl)c(C(=O)Nc2nc3ccc(Cl)cc3s2)n1,?
CC(CCc1ccccc1)NCc1ccncc1 (stereo not drawn),4%
Cc1ccc(N(CC(=O)NC2CCCC2)C(=O)c2c(C)noc2C)cc1C,-2%
Cn1c(SCC(=O)NC(C)(C)C)nnc1-c1cnccn1,-9%
CCNc1nc(NCC)nc(OCCOC(=O)Nc2ccccc2)n1,-4%
O=C(O)c1ccccc1C(=O)NCc1cccnc1,-15%
Cc1nn(Cc2ccccc2)c2c1C(c1ccncc1)C(C#N)=C(N)O2 (stereo not drawn),-16%
Cc1ccc(C(=O)Nc2ccc(S(=O)(=O)N3CCN(C)CC3)cc2)o1,-10%
CCCc1nc2sc3c(c2c(=O)n1N)CCC3,-13%
O=C1CSC(=O)N1CC(O)COc1ccc(Cl)cc1 (stereo not drawn),-12%
COC(=O)c1c(C(=O)OC)c(C)n(Cc2cccnc2)c1C,4%
CN(C)S(=O)(=O)c1ccc(Cl)c(NC(=O)COC(=O)CN2C(=O)NC(C)(C)C2=O)c1,-3%
Cn1c(Cc2cccs2)nnc1SCc1nc2ccccc2[nH]1,-15%
c1ccc(CN2CCN(c3nc(-c4ccccc4)nc(-n4ccnc4)n3)CC2)cc1,-17%
NS(=O)(=O)c1ccc(CNC(=O)c2ccc(Cl)cc2[N+](=O)[O-])cc1,-16%
COc1cnn(-c2ccccc2)c(=O)c1N(C)C,-3%
O=C(CCc1ccccc1)NCCCN1CCOCC1,-5%
c1ccc(C2CN3CCSC3=N2)cc1 (stereo not drawn),-16%&-3%
Cc1cc(C(=O)COC(=O)c2ccc(O)cc2)c(C)n1Cc1ccco1,-20%
CCOc1ccccc1Nc1ncnc2ccccc12,-15%
COc1c(F)c(F)c(C(=O)O)c(Nc2ccccc2)c1F,-7%
O=C(CS(=O)(=O)Cc1ccccc1)Nc1cccnc1,5%
O=c1[nH][nH]cc1C=Nc1ccccc1O,-25%
O=C(COC(=O)C1COc2ccccc2O1)NC1CCS(=O)(=O)C1 (stereo not drawn),-14%
Cc1csc(NC(=O)c2cccn2C)n1,?
CCCn1c(N)c(C(=O)CSc2nc(C)cs2)c(=O)[nH]c1=O,1%
Cc1ccc(S(=O)(=O)N2CCC(=O)N([C@H](COCc3cccc(C(F)(F)F)c3)Cc3ccccc3)CC2)cc1,-19%
CN(C)c1ccc(-c2nc(NCc3cccnc3)c3ccccc3n2)cc1,?
COc1ccc2c(c1OC)CCC2=O,?
C=CCn1c(SCn2nnc3ccccc3c2=O)nnc1-c1ccc(F)cc1,-2%

A section taken from the entries so far, as a working copy:
molecule,HPGD block
O=C(COc1ccccc1)Nc1ccc(S(=O)(=O)N2CCOCC2)cc1,-7%
CN1CC(=O)N(C)c2ncn(Cc3ccccc3)c2C1=O,-7%
